Rango-impB inh: qHTS Assay for Inhibitors of Rango (Ran-regulated importin-beta cargo) - Importin beta complex formation; Importin subunit beta-1 (Homo sapiens), Q14974; Rango CFP/YFP FRET sensor + importin beta, 45 min; Potency, µM (series often up to 92.2 µM), inactives show at the highest dose inhibition of complex formation; 340,000 compounds, 0.031% hits; AID 540263, 2011; active = rising FRET ratio curve, often small or poorly fitted; inconclusive = mostly compound fluorescence or quenching in the first reads; inactive = flat curves in all reads;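 note: potency is the fitted concentration of half-maximal effect; 0% = DMSO wells and 100% = buffer wells lacking importin beta; nearly all actives have a fitted effect of over 15% in size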
Target sequence (Q14974 whole entry, looked up): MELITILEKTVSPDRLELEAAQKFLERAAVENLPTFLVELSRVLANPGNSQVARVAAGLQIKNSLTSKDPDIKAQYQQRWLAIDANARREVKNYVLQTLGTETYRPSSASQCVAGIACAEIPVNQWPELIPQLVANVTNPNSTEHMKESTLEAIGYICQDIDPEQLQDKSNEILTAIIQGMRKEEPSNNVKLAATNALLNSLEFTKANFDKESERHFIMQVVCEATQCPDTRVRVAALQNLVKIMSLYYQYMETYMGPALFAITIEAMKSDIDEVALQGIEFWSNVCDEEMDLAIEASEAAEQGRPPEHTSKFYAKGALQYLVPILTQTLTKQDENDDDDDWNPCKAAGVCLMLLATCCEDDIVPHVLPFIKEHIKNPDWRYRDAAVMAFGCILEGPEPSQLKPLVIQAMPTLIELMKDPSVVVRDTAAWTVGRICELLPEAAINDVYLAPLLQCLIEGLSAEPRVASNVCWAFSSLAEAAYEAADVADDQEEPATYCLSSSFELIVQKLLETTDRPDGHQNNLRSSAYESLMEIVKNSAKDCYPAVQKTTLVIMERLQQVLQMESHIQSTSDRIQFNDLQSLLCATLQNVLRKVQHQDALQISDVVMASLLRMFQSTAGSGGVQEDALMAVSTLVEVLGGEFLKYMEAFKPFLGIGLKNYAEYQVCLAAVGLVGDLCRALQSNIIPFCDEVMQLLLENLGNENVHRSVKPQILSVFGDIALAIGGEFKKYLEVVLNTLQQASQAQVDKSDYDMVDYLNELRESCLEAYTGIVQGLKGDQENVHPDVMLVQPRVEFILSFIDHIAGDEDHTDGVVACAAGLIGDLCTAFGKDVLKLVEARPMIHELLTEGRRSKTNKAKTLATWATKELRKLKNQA
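Inhibition scored from the CFP 486 nm/YFP 530 nm FRET ratio 45 min after adding 0.125 microM importin beta to 50 nM Rango biosensor preincubated 5 min with compound (room temperature, PBS with DTT, Tween-20, BSA). No-importin wells as positive control.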
miR-21 reporter: qHTS Assay for Modulators of miRNAs and/orActivators of miR-21; HeLa miR-21 FLuc reporter, luciferase, 48 h; 340,000 tested, under 10 active; Potency, µM (top dose mostly 38.3 µM), without a hit: top-dose reporter change, positive = more light; AID 2288, 2010; active = well fitted rising curve with a large enough effect; inconclusive = small, poorly fitted or top-dose-only effect; inactive = no such curve, though single readings can be large or run the other way;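 note: % of control where 0% means no effect; miR-21 action dims this reporter so a rising signal means less miR-21 action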
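Luminescence from a firefly luciferase reporter carrying a miR-21 binding site downstream, stably expressed under a CMV promoter in HeLa cells that make miR-21 endogenously, reports miRNA modulation after 48 h compound exposure up to approximately 40uM final.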
GLA inh pH 4.5: qHTS Assay for Inhibitors of Human alpha-Galactosidase at pH 4.5. Alpha-galactosidase A (Homo sapiens), P06280. purified enzyme, 4-MU-alpha-Gal fluorescence, pH 4.5. activity change, negative = inhibition, % at 105 µM. 230,000 tested, under 10 active. AID 1467, 2008; inconclusive = small, poorly fitted or top-dose-only inhibition, or a rising curve; inactive = flat fitted curve, though single readings scatter; no compound was filed as active;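 note: 0% = full activity with enzyme and -100% = basal without enzyme; dose as in the result columns while the protocol names 77 µM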
Rango dissoc inh: qHTS Assay for Inhibitors of RanGTP induced Rango (Ran-regulated importin-beta cargo) - Importin beta complex dissociation; Snurportin-1 (Homo sapiens) + GTP-binding nuclear protein Ran (Homo sapiens) + Importin …; Biochemical FRET Rango-importin beta, RanGTP-induced dissociation; Potency, µM (doses to about 46.1 µM), without a hit: at the highest dose activity change, negative = inhibition; 340,000 compounds, 0.071% hits; AID 540253, 2011; active means falling FRET ratio curve, often poorly fitted, with flat reads before Ran was added; inconclusive means other falling curves, or compound fluorescence or quenching; inactive means flat or rising ratio curve;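 note: potency is the fitted concentration of half-maximal effect; % of control where 0% means no effect; nearly all actives have a fitted effect of over 45% in size; -100% = wells without RanGTP and RCC1; the record marks most hits as doubtful in a second field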
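Rango/importin beta premix (0.1/0.25 uM final), PBS + 1 mM DTT + 0.02% Tween-20 + 0.1% BSA; cpd 5 min RT; FRET pre-read; + RanGTP-RCC1 (0.6 uM Ran, 2 mM GTP, 0.2 uM RCC1); 45 min RT; FRET post-read, ex 430, em 486/530 nm.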
* = called active by the depositor; ? = inconclusive; . = not tested or not shown; & = joins results of further samples. Some of the compounds tested (hit frequency here may not be typical).

smiles | Rango-impB inh | miR-21 reporter | GLA inh pH 4.5 | Rango dissoc inh
CN1CCN(C(=O)C2(NC(=O)NCc3ccccc3)CCCCC2)CC1 | 2.3% | 3% | 0 | -1%
Cc1ccc(C(=O)Nc2cccc(S(=O)(=O)N3CCCC3)c2)o1 | -0.3% | . | . | 4%
CCOC1(c2ccccc2)OC(=O)c2ccccc21 (stereo not given) | 3.2% | -1% | 3 | -6%
Brc1ccc(CNCc2cccs2)cc1 | -0.2% | -7% | 2 | 0%
CS(=O)(=O)c1cccc(-c2nnc(NC(=O)CCS(=O)(=O)c3ccccc3)o2)c1 | 0.1% | . | . | -6%
COc1ccccc1CC(=O)Nc1ccccc1C(=O)O | 0.5% | -5% | 5 | 0%
NC(=S)N/N=C/c1coc2ccc(F)cc2c1=O | 3.9% | -1% | -3 | 18%
O=C(O)c1ccc(N/N=C/C=C/c2ccc([N+](=O)[O-])o2)cc1 | 11% | -30% | . | -2%
COC(=O)CSc1nc2sc3c(c2c(=O)n1-c1ccccc1)CCN(C)C3 | ? | -6% | -1 | -28%
OCCOCCNc1ncnc2c1c(-c1ccccc1)cn2-c1ccccc1 | 2.5% | 0% | . | -3%
COc1ccc(C(=O)OCC(=O)NCc2ccccc2)c(OC)c1OC | -0.4% | 2% | 9 | 0%
CCC(C(=O)O)n1c2ccccc2c2cn[nH]c(=O)c21 (stereo not given) | -0.2% | 0% | . | 1%
NCCC(=O)N1c2ccccc2Sc2ccc(Cl)cc21 | -4.4% | 0% | . | 1%
CCN(CC(=O)Nc1c(F)cccc1F)C(=O)CSCC(=O)Nc1cc(C)on1 | -1.2% | . | . | -3%
O=C1c2cc(F)ccc2-n2c1nc1ccccc1c2=O | -0.3% | 21% | . | 1%
CC(C)CCn1c(SCc2ccc(Cl)cc2)nc2c1c(=O)[nH]c(=O)n2C | 0.0% | -27% | 5 | -14%
COn1c(=O)c(-c2cccs2)[n+]([O-])c2ccccc21 | ? | -37% | 0 | ?
CCSC1(SCC)N=C(N)C2(C#N)C(c3ccccc3)NC3=C(CCC3)C12C#N (stereo not given) | ? | -3% | -1 | -12%
COc1ccc(OC)c(S(=O)(=O)NCc2ccccc2)c1 | 0.7% | 1% | 6 | -11%
Cc1cccc(C)c1NC(=O)COC(=O)CCC(=O)c1cccs1 | -3.3% | -1% | 2 | -4%
CCc1ccc(NC(=O)Nc2cnccn2)cc1 | 0.5% | -43% | . | -2%
CCOc1ncccc1C(=O)Nc1ccccc1C(=O)NCc1ccc2c(c1)OCO2 | 1.7% | -3% | -4 | 4%
C=CCC[C@@H](Cc1ccc(F)cc1)C(=O)OC[C@@H](Cc1c[nH]c2ccccc12)NC(=O)[C@@H](CC=C)CC(=O)N[C@@H](CO)Cc1ccccc1 | -1.0% | . | . | 9%
O=C(Nc1c(C(=O)O)oc2ccc(Br)cc12)c1ccccc1 | 2.8% | 7% | 1 | 0%
CCOC(=O)C(C)n1cnc2scc(-c3ccc(C)cc3)c2c1=O (stereo not given) | 0.1% | -3% | . | -8%
CN(CC(=O)Nc1ccccc1Br)C(=O)COc1cccc2c1OC(C)(C)C2 | -2.5% | . | . | 13%
Oc1cccc(C2c3[nH]c4ccccc4c3CCN2Cc2ccoc2)c1 (stereo not given) | -2.8% | 2% | -1 | -21%
COc1ccc(CCNC(=O)C2CCN(c3nccc(C)n3)CC2)cc1 | -3.1% | -4% | -3 | -1%
Clc1ccc(/C=C/c2ncc[nH]2)c(Cl)c1 | -0.9% | -50% | . | -2%
CCCCn1c(CN2CCOCC2)nc2c1c(=O)n(C)c(=O)n2C | 0.1% | 5% | -4 | 0%
Nc1cccc(-c2cc(-c3ccccc3)nc(-c3cccc(N)c3)n2)c1 | -1.9% | 0% | 3 | -1%
CN(C)CC(C(=O)c1ccccc1)c1ccccc1 (stereo not given) | -3.8% | ? | 5 | 5%
COC(=O)c1ccc(OCC(O)CN2CCc3cc(OC)c(OC)cc3C2c2ccccc2)cc1 (stereo not given) | 4.4% | 24% | . | -14%
COc1ccc(COC(=O)C2=C(C)NC(=O)NC2c2ccc(F)cc2)cc1 (stereo not given) | 2.8% | ? | . | 26%
CC(C)(C)S(=O)N1Cc2ccc(CO)cc2[C@H]1CCO (stereo not given in full) | 1.0% | . | . | -5%
Cc1ccc(-c2nnn(CC(=O)N(c3cccc(O)c3)C(C(=O)NC(C)(C)C)c3cccs3)n2)o1 (stereo not given) | ? | 7% | -17 | -5%
Nc1ccc2nc(-c3cc(Cl)c(N)c(Cl)c3)[nH]c2c1 | -1.8% | -25% | 0 | ?
CCNC(=S)NNC(=O)c1cc(-c2ccccc2C)nc2ccccc12 | 0.4% | -6% | 1 | -6%
COC(=O)c1cn(NC(=O)c2cccc(N(C)C)c2)c(=O)c2ccccc12 | 0.9% | -10% | 5 | -15%
N#CC1=C2SCN(c3ccccc3)CN2C(=O)CC1c1cccs1 (stereo not given) | -5.0% | -1% | -6 | -15%
Cc1csc(Nc2ccc(Cl)cc2)[n+]1-c1ccc(Cl)cc1 | -4.2% | 0% | 4 | 0%
O=c1cc(-c2ccccc2Cl)oc2ccc([N+](=O)[O-])c(O)c12 | -4.9% | -11% | -10&3 | -4%
Oc1cc(O)cc(/C=C/c2ccc(O)c(O)c2)c1 | -1.9% | . | -16&0 | -14%
O=C(NCCCN1CCOCC1)c1cc(-c2ccccc2)on1 | 2.6% | -81% | -2 | -22%
O=C(c1cc(-c2ccccc2)on1)N1CCCC1 | 4.5% | -58% | 0 | -9%
O=C(COC(=O)[C@H](Cc1ccccc1)NC(=O)c1ccco1)Nc1ccccc1 | -0.3% | . | . | -1%
COCCNC(=O)c1onc(CSc2ccc(F)c(F)c2)c1C(=O)NCCOC | -4.0% | . | . | 21%
O=S(=O)(NC(CO)Cc1ccccc1)c1ccc(Br)cc1F (stereo not given) | -0.4% | . | . | 1%
CCOc1ccccc1-n1c(=S)sc2c(=O)n(-c3ccccc3)c(=S)[nH]c21 | 2.1% | 0% | -2 | 2%
O=C(CCC1CCCC1)N1CCN(S(=O)(=O)Cc2ccccc2)CC1 | 1.2% | 2% | 4 | 1%

Next section
smiles | Rango-impB inh | miR-21 reporter | GLA inh pH 4.5 | Rango dissoc inh
CC1CCN(C(=O)c2ccc3c(=O)n4c(nc3c2)CCCCC4)CC1 | 5.4% | -13% | . | 21%
Cc1cc(C)nc(Nc2n[nH]c(-c3ccccc3Cl)n2)n1 | 2.6% | -17% | 3 | -4%
CCCc1cc(=O)[nH]c2nnc(SCC(=O)NC3CCCCC3)n12 | 3.2% | . | . | ?
CC1(CC(=O)O)C(=O)N=C2C=CC=CN21 (stereo not given) | -2.7% | -5% | 2 | 1%
O=S(=O)(c1ccc(Br)cc1)c1cnc2ccccc2n1 | -1.9% | 4% | -5 | 7%
O=C(Nc1cc(Cl)ccc1Cl)N1CCN(C(=O)Nc2cc(Cl)ccc2Cl)CC1 | ? | . | . | -16%
Cc1ccccc1NC(=O)NC(N)=O | 0.0% | -8% | ? | 0%
Cc1c(C)c2c(OCC(=O)NCc3cccnc3)cc3c(c2oc1=O)CCC(C)(C)O3 | 0.3% | -4% | . | 0%
CCC(O)CNc1nc(SC)nc2sc3c(c12)CCN(C)C3 (stereo not given) | ? | 3% | ? | ?
Cc1ccc(C(=O)O)cc1N1CCCC1=O | 5.5% | 0% | 3 | 15%
NC(=O)c1ccccc1NC(=O)N1CCOCC1 | -1.0% | -3% | . | ?
CN(C(=O)COC(=O)c1cccc(NS(=O)(=O)c2ccc(F)c(F)c2)c1)C1CCS(=O)(=O)C1 (stereo not given) | 1.3% | 0% | -2 | -9%
Cc1nnc(SCC(=O)N2CC(=O)Nc3ccccc32)n1-c1ccccc1 | -0.7% | 1% | 1 | 1%
COc1ccc(Cl)cc1N1C(=O)/C(=C\c2sccc2C)N=C1SCC(=O)NC1CC1 | ? | 11% | -18 | ?
CN(Cc1ccccc1)C(=O)C1CCN(S(C)(=O)=O)CC1 | -1.3% | 6% | 7 | -10%
COC(=O)c1cccc(CSC(=S)N2CCCC2)c1 | 0.1% | -20% | . | 9%
Cc1ccc(SCC(=O)N/N=C/c2ccco2)cc1 | -0.6% | -7% | . | 0%
COc1cc(CN2CCC(Oc3cc(C(=O)NC4CC4)ccc3OC)CC2)cc(OC)c1 | -1.4% | -4% | . | 8%
CCOc1ccccc1N(CC(=O)Nc1ccccc1C(=O)N1CCOCC1)S(C)(=O)=O | -3.9% | -1% | . | -9%
Cc1ccc(N/N=C/c2c(C)c(C#N)c(=O)n(C)c2O)cc1C | ? | -2% | 10 | -21%

An excerpt of these results, with the structure last.
Rango-impB inh,miR-21 reporter,GLA inh pH 4.5,Rango dissoc inh,Structure
1.3%,0%,-2,-9%,CN(C(=O)COC(=O)c1cccc(NS(=O)(=O)c2ccc(F)c(F)c2)c1)C1CCS(=O)(=O)C1 (stereo not given)
-0.7%,1%,1,1%,Cc1nnc(SCC(=O)N2CC(=O)Nc3ccccc32)n1-c1ccccc1
?,11%,-18,?,COc1ccc(Cl)cc1N1C(=O)/C(=C\c2sccc2C)N=C1SCC(=O)NC1CC1

Other records follow.
smiles | Rango-impB inh | miR-21 reporter | GLA inh pH 4.5 | Rango dissoc inh
CC(C)c1ccc(S(=O)(=O)N2CCN(C(=O)CN3C(=O)c4ccccc4C3=O)CC2)cc1 | 0.0% | . | . | 6%
COC(=O)[C@@H]1C[C@@]2(O)[C@@H](O)[C@@H](O)[C@@H](O)C[C@H]2N1CC1CCCCC1 | 0.3% | 1% | -5&-1 | 17%
CC(C)(C)NC(=O)CSc1nc2cc(S(=O)(=O)N3CCCCC3)ccc2o1 | -2.6% | . | . | -2%
CCN1CCN(c2cc(C)c3cc(NC(=O)CCC(=O)Nc4ccc(OC)c(OC)c4)ccc3n2)CC1 | -1.9% | 4% | . | -11%
C=CCn1nc2ccccc2c1OCCO | 2.7% | . | . | 2%
CO/C=C\C=C/c1nnn(-c2ccc(Cl)cc2)n1 | -0.9% | -32% | 6 | -19%
O=C(CCN1CCOCC1)Nc1cccc(Br)c1 | -0.1% | -2% | 1 | 5%
CCOC(=O)c1cc(-c2cccnc2)nn1-c1ccccn1 | -4.1% | -7% | 3 | -1%
COc1ccccc1NC(=O)CSc1nnc(CNC(=O)c2ccco2)o1 | -0.5% | 0% | 3 | 13%
COc1cc(/C=C(\C#N)C(=O)NCC2CCCO2)ccc1OCCC(C)C (stereo not given) | -0.4% | 4% | -2 | 2%
Cc1[nH]c2ccc(F)cc2c1CCN(Cc1cccnc1)C(=S)Nc1cccc(F)c1 | 0.2% | 18% | -6 | 8%
COc1ccccc1-c1cc(C(=O)N2CCCCC2)no1 | 1.4% | -51% | 4 | 7%
O=C(COc1ccccc1[N+](=O)[O-])Nc1ccc2c(c1)OCO2 | 0.1% | -62% | 3 | -12%
Cc1ccc(OCC(=O)NC(=S)Nc2cccc(NC(=O)c3ccccc3Cl)c2)cc1 | 1.2% | -9% | 0 | -3%
COc1cccc(-c2nc(CS(=O)(=O)CC(=O)NCCCN3C(C)CCCC3C)c(C)o2)c1 (stereo not given) | 0.6% | 0% | . | -10%
O=C(COc1ccc(Br)cc1CO)Nc1ccccc1F | -0.5% | -52% | 4 | 7%
CCCC(=NC(C)CC)C1=C(O)CC(c2ccccc2)CC1=O (stereo not given) | -0.5% | -1% | . | -21%
CCCCNC(=O)c1c(CSc2ccc(Cl)cc2)noc1C(=O)NCc1ccccc1 | 1.5% | . | . | 1%
CC(C)(C)c1ccc(O)c(N=Cc2cc3c(cc2[N+](=O)[O-])OCO3)c1 | 3.2% | -14% | . | 2%
Cc1c(NS(=O)(=O)c2cc(C(=O)N3CCCC(C)C3)ccc2Cl)c(=O)n(-c2ccccc2)n1C (stereo not given) | -2.8% | . | . | 37%
S=C(Nc1ccccc1)Nc1ccc2cn[nH]c2c1 | -3.0% | -31% | 0 | 0%
O=C(Nc1nc2ccc(Cl)cc2s1)c1cccc(N2C(=O)CCC2=O)c1 | 0.0% | . | . | 7%

High-throughput results from PubChem BioAssay.
